# Compound activity: PubChem, National Center for Advancing Translational Sciences (NCATS)
# PTAP TSG101 blk – qHTS Assay for Iinhibitors of HIV-1 Budding by Blocking the Interaction of PTAP/TSG101; Potency, µM (titrated, usually from 115 µM), without a hit: at the top dose activity change, negative = inhibition, most hits filed as inhibitors; 340,000 tested, under 10 active; Fluorescence polarization, FITC-PTAP peptide / Tsg101 binding; Tumor susceptibility gene 101 protein (Homo sapiens), Q99816; active = well fitted inhibition curve with a large enough effect in the main read-out, with a control signal flat, not every such curve was filed as active; inconclusive = small, poorly fitted or top-dose-only effect, or effect the other way, or a change in a side signal; inactive = no such curve, though single readings can be large or run the other way; also: potency is read from the fitted curve at half-maximal effect; % of control where 0% means no effect
#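 Fluorescence polarization binding of Tsg101 binding domain (10 uM final) to FITC-labeled PTAP peptide (50 nM final) in HEPES pH 7.5 buffer with NaCl, Tween 20, EDTA, TCEP. Compounds added before peptide; binding 20 min at RT.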
# Chronic BCR inh – qHTS Assay to Find Inhibitors of Chronic Active B-Cell Receptor Signaling | 340,000 compounds, 0.05% hits | AID 493014, 2011 | Potency, µM (highest dose often 46.1 µM), without a hit: at the highest dose ratio change, negative = lower green/red ratio, hits mostly inhibitors | ABC-DLBCL IkBa-CBG/CBR reporter, luminescence ratio, 4 h; active = well fitted inhibition curve with a large enough effect in the signal ratio, with a control signal flat, not every such curve was filed as active; inconclusive = small, poorly fitted or top-dose-only effect, or effect the other way, or a change in a side signal; the % refers to the signal ratio;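 also: potency is read from the fitted curve at half-maximal effect; plate controls were basal doxycycline-induced cells for no effect and cells given 10 µM MG132 for full effect; MG132 reads +100%, hits lower the ratio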
#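 TMD8 human ABC-DLBCL cells with doxycycline-inducible IκBα–green luciferase fusion and unfused red luciferase, in 0.5% FBS medium; compounds up to 46 uM, 4 h at 37C. Green/red luminescence ratio, filter-overlap corrected, fitted to concentration-response curves.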
# TCR act – Activators of T cell receptors: qHTS campaign; Potency, µM (doses to about 9.22 µM), without a hit: top-dose activation of IL-2 secretion, most hits filed as activators; primary human leukocytes, anti-CD3, IL-2 HTRF, 48 h; 330,000 tested, under 10 active; also: % of control where 0% means no effect
#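 TCR engagement came from a-CD3 beads alone, with compounds added to primary human leukocytes for 48 hr. Secreted IL-2 bridged europium cryptate- and d2-labelled anti-IL-2 antibodies, giving FRET emission at 665nm after 320nm excitation.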
# Eya2 phos inh – qHTS Assay for Inhibitors of the Phosphatase Activity of Eya2; Potency, µM (highest dose often 76.9 µM), for inactives: at the highest dose activity, negative = inhibition, most hits filed as inhibitors; Protein phosphatase EYA2 (Homo sapiens), O00167; recombinant Eya2, OMFP fluorescence dephosphorylation (OMFP is methylfluorescein phosphate); 330,000 compounds, 0.006% hits; AID 488837, 2010; also: potency is read from the fitted curve at half-maximal effect; % is scaled to controls: 0 for no effect and ±100 for the full control effect
# Target sequence (O00167 whole entry, looked up): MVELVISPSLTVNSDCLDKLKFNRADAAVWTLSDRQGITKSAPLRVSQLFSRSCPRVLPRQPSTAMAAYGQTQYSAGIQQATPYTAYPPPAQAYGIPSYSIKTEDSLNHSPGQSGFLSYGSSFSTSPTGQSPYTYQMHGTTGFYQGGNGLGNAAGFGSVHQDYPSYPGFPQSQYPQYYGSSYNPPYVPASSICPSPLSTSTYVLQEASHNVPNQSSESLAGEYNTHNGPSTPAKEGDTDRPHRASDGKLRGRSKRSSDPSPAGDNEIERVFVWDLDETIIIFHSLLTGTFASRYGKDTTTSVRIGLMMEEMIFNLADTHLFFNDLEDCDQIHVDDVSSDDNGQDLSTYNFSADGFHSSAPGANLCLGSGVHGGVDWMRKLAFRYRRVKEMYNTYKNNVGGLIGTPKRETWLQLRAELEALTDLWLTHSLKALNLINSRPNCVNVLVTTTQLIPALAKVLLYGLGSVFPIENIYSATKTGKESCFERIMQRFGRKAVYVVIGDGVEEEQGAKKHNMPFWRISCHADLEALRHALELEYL
#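 Eya2 (0.2 uM) preincubated 10 min at ambient with compound, then OMFP substrate added at 50 uM; 10 min reaction in 50 mM HEPES pH 7.5, 50 mM NaCl, 5 uM MgCl2, 0.05% BSA, 1 mM DTT. Fluorescence read at Ex 485/Em 525 nm.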
# B2AR arrestin – qHTS assay of beta-arrestin-biased ligands of beta2-adrenergic receptor; Beta-2 adrenergic receptor (Homo sapiens), P07550; beta-arrestin recruitment to beta2AR, cell-based reporter; 330,000 compounds, 0.02% hits; Potency, µM (doses to about 46.1 µM), inactives show at the top dose activation, actives largely listed as activators;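 also: potency is read from the fitted curve at half-maximal effect; 0% = DMSO controls and full agonism = EC100 isoproterenol or metaproterenol; nearly all actives have a fitted effect of over 65% in size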
# uPA generation – qHTS for Inhibitors of Cell Surface uPA Generation; cell surface uPA generation assay, qHTS; Potency, µM (top dose mostly 38.3 µM), for inactives: top-dose activity change, negative = inhibition, actives largely listed as inhibitors; 330,000 compounds, 0.31% hits; active = well fitted inhibition curve with a large enough effect; inconclusive = small, poorly fitted or top-dose-only effect; inactive = no such curve, though single readings can be large or run the other way; tested in mouse RAW 264.7 cells; also: potency is read from the fitted curve at half-maximal effect; % is scaled to controls: 0 for no effect and ±100 for the full control effect; nearly all actives have a fitted effect of over 55% in size
# USP2a block – qHTS Assay for Inhibitors of Ubiquitin-specific Protease USP2a Using CHOP2 as the Reporter; USP2 core, Ub-CHOP2 coupled fluorogenic reporter, 485/531; AID 463254, 2010; Potency, µM (top dose mostly 38.3 µM), for inactives: at the highest dose activity change, negative = inhibition, most hits filed as inhibitors; 330,000 compounds, 0.01% hits;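 also: potency is read from the fitted curve at half-maximal effect; plate controls were DMSO wells for no effect and full inhibition by NEM control for full effect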
#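 Deubiquitinase activity read as fluorescence (485/531 nm) after Ub-CHOP2 cleavage activates the enterokinase reporter on its substrate; USP2 core 10nM, Ub-CHOP2 and substrate 25nM each, 30min compound preincubation then 60min RT; data normalized to NEM, curves fitted.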
# Tb PFK inh – qHTS Assay to Find Inhibitors of T. brucei phosphofructokinase; T. brucei PFK, ADP-Glo luminescence; Potency, µM (titrated, usually from 57.5 µM), for the others: at the top dose activity, negative = inhibition, most hits filed as inhibitors; 330,000 compounds, 0.17% hits; AID 485367, 2010;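 also: potency is read from the fitted curve at half-maximal effect; 0% = uninhibited 1x PFK enzyme wells and -100% = no-enzyme wells; nearly all actives have a fitted effect of over 60% in size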
# Target sequence (O15648 whole entry, looked up): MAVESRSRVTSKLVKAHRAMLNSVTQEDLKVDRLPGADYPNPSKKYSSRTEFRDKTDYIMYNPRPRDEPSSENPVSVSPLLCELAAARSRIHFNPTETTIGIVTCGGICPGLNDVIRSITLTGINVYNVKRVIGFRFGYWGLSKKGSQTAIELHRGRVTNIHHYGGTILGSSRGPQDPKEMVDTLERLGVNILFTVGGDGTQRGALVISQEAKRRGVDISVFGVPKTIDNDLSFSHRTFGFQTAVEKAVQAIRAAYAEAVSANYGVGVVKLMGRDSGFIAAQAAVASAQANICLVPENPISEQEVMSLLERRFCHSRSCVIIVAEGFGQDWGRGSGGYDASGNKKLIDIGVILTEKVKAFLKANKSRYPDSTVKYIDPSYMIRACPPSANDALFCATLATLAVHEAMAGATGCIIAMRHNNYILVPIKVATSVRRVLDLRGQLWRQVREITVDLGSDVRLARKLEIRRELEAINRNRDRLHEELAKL
#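 In TEA buffer at pH 8.0 with 5 mM MgCl2, enzyme (1.25 nM) converted F6P (0.5 mM) and ATP (0.1 mM) for 45 min at room temperature. ADP product was read by luciferase luminescence.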
# ELG1 DNA repair – qHTS screen for small molecules that inhibit ELG1-dependent DNA repair in human embryonic kidney (HEK293T) cells expressing luciferase-tagged ELG1; HEK293T ELG1-luciferase reporter, luminescence, 16 h; DNA damage induced by 5-fluorouridine; Potency, µM (top dose mostly 46.1 µM), for the others: at the highest dose activity change, negative = inhibition, actives largely listed as inhibitors; 330,000 compounds, 2.3% hits; also: potency is read from the fitted curve at half-maximal effect; % is scaled to controls: 0 for no effect and ±100 for the full control effect; nearly all actives have a fitted effect of over 55% in size
#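 5-Fluorouridine DNA damage + compound/DMSO, 2,000 cells/well, 16 h, 37 °C/5% CO2. ONE-Glo, 30 min RT, luminescence. Readout = decrease in reporter signal.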
# Mito fusion act – qHTS Assay for Small Molecule Inhibitors of Mitochondrial Division or Activators of Mitochondrial Fusion | S. cerevisiae fusion-defective mutant growth rescue, CellTiterGlo 48 h | Potency, µM (doses to about 46.1 µM), for the others: top-dose growth rescue (activation), actives largely listed as activators | 320,000 compounds, 0.23% hits;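 also: potency is read from the fitted curve at half-maximal effect; % of control where 0% means no effect; nearly all actives have a fitted effect of over 45% in size; temperature-sensitive fusion mutants such as fzo1-1 at 37 °C on non-fermentable ethanol glycerol medium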
#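 Temperature-sensitive fusion-defective S. cerevisiae (e.g. fzo1-1, mgm1-5) were grown with compound in YPEG medium (3% ethanol, 3% glycerol) for 48 hours at 37C. Growth rescue was measured as viability by CellTiterGlo luminescence after 10 minutes at ambient.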
# * marks the source's active call; other numbers are inactive results; u = inconclusive; x = not tested or not shown; [ ] = remark or other dose. Unless noted, calls follow the shape of the dose curve; as a rule, active = well fitted curve in the direction sought with a large enough effect; inconclusive = small, poorly fitted or top-dose-only effect, or another doubt; inactive = no such curve, though single readings can be large; an effect the other way counts as inactive or inconclusive.
SMILES,PTAP TSG101 blk,Chronic BCR inh,TCR act,Eya2 phos inh,B2AR arrestin,uPA generation,USP2a block,Tb PFK inh,ELG1 DNA repair,Mito fusion act
COC(=O)c1cc(=O)n(-c2ccc(C(F)(F)F)cc2)[nH]1,0%,14%,6%,-8%,-0.7%,-3%,1%,-7%,-2%,3%
CCOc1cc(C)c(Cl)cc1S(=O)(=O)NCc1ccc2c(c1)OCO2,-1%,u,-2%,0%,-0.2%,-8%,0%,-2%,-22%,9%
FC(F)(F)c1cccc(OCc2noc(-c3ccsc3)n2)c1,-2%,6%,-4%,4%,-0.5%,-2%,-2%,2%,0%,-5%
Cc1cc(C)c(C(=O)N2CCCC(CNC(=O)C3(c4ccc(Cl)cc4)CC3)C2)c(=O)[nH]1 (stereo not given),1%,u,3%,-5%,-0.8%,10%,-8%,4%,18%,13%
COCCS(=O)(=O)N(Cc1ccccc1)[C@H](C(=O)OC)C(C)C,-5%,-1%,0%[46.1 µM],3%,0.0%,16%,0%,-4%,3%,x
Cc1cc(C)cc(OC(C)C(=O)Nc2ccc3c(c2)n(C)c(=O)n3C)c1 (stereo not given),1%,u,-1%,-15%,4.0%,-20%,1%,-10%,-10%,-8%
Cc1cc(C)c(S(=O)(=O)n2cc(C(C)C(N)C(=O)O)c3ccccc32)c(C)c1 (stereo not given),0%,-27%,2%,21%,-0.1%,-6%,2%,0%,5%,-2%
O=C(O)c1ccc(/C=C(\c2nc3ccccc3[nH]2)c2nc3ccccc3s2)cc1,-6%,u,-24%,11%,0.1%,-3%,-1%,11%,u,-1%
COC(=O)CCN(C(=O)C1C2CC3CC(C2)CC1C3)c1ccccn1 (stereo not given),0%,12%,4%,1%,-0.2%,5%,4%,-5%,-1%,3%
CC(=O)Nc1ccc(-c2csc(-c3cccnc3)n2)cc1,-1%,u,2%,-18%,0.2%,-5%,-1%,4%,u,2%
CCN1CCN(CC(=O)Nc2nc3ccccc3s2)CC1,-1%,-3%,0%,-12%,0.3%,11%,-3%,-8%,u,-2%
COc1cccc(/C=N\n2c(C)nnc2C)c1OC,-1%,-8%,1%,3%,0.0%,-3%,0%,-4%,u,-3%
Fc1ccc(/C=C2\CCCC3=C2Nc2ncnn2C3c2ccc(F)cc2)cc1 (stereo not given),-6%,u,4%,-8%,-0.5%,-19%,-9%,-5%,4.6µM*,-5%
COc1cc(Br)c(CC(=O)O)cc1OC,-2%,-2%,-4%,-13%,-0.8%,-1%,0%,0%,-2%,-5%
Cc1ccc(S(C)(=O)=O)cc1S(=O)(=O)Nc1cccc(Cl)c1,-1%,-1%,1%[46.1 µM],-4%,-2.3%,-3%,-4%,4%,-1%,-1%
COC(=O)c1cc(=O)nc2sc3cc(OC)ccc3n12,-7%,2%,-3%[46.1 µM],1%,0.8%,-3%,1%,4%,2%,-1%
CN(C)CCCN(Cc1ccc2c(c1)OCO2)C(=O)NC1CCCCC1,0%,-10%,2%,3%,-1.3%,2%,3%,-1%,0%,4%
C=CCN1CCN(C(=O)c2ccc3c(c2)OCO3)CC1,-7%,-2%,6%,-4%,0.6%,6%,2%,4%,9%,1%
CC(C)Cc1nnc(NC(=O)CCC(=O)N2CCC(C)CC2)s1,-2%,-1%,-2%,-6%,0.5%,0%,-2%,0%,2%,0%
CCCCC(CC)CN=C(N)NC(N)=NCCCCCCN=C(N)NC(N)=NCC(CC)CCCC (stereo not given),-1%,u,-2%,u,0.4%,u,u,u,u,-35%[inhibitor]
O=C(Nc1cccc(-c2cn3ccccc3n2)c1)C1CC1,-5%,1%,5%,-4%,-0.7%,x,2%,1%,u,0%
COc1ccc(-c2csc3ncnc(N4CCN(S(=O)(=O)c5ccccc5C#N)CC4)c23)cc1,-2%,-1%,-19%,-8%,0.5%,-11%,0%,-3%,u,-11%
Oc1cc2ccccc2cc1-c1n[nH]c(=S)o1,-9%,u,0%,4%,-0.1%,2%,-8%,-3%,u,-2%
O=C(/C=C/c1ccccc1)c1ccc2c3c(cccc13)CC2,2%,u,-1%[46.1 µM],-11%,-0.2%,-7%,-2%,1%,u,5%
O=C(c1ccc(Cl)nc1)N1CCN(S(=O)(=O)c2ccc(Cl)cc2)CC1,-1%,1%,-1%,-3%,0.1%,-3%,-1%,3%,5%,2%
COC(=O)c1cc(S(=O)(=O)NCC2CCN(Cc3ccc(C)cc3)CC2)cn1C,-4%,3%,4%,7%,0.0%,10%,1%,-20%,9%,4%
OC1OC[C@@H](O)[C@H](O)[C@H]1O (stereo not given in full),x,-11%,x,14%,-0.1%,x,1%,8%,13%,0%
CC(=O)NS(=O)(=O)c1cccnc1Nc1ccc(Cl)c(Cl)c1,-1%,u,-8%,4%,0.0%,2%,-3%,1%,-1%,0%
CCN(CCNC(=O)C1CCN(S(C)(=O)=O)CC1)c1ccccc1,-4%,3%,0%,5%,-0.1%,10%,2%,8%,11%,-4%
C=CCn1c(SCC(=O)Nc2cccnc2Cl)nnc1-c1ccccc1F,-5%,-2%,2%[46.1 µM],-10%,0.2%,4%,0%,-1%,u,-11%
COc1ccc(-c2cc(CNC(=O)CN3CCN(C)CC3)on2)cc1,-3%,2%,-4%,2%,-2.2%,5%,1%,-2%,-1%,-5%
O=S(=O)(c1ccccc1)N1CCN(Cc2cc3c(cc2Br)OCCO3)CC1,-1%,-12%,-3%,15%,-1.6%,7%,-2%,0%,-20%,13%
Nc1cccc([N+](=O)[O-])c1,-1%,-1%,-1%,6%,0.0%,6%,1%,-27%,6%,1%
O=C(O)C1CCN(S(=O)(=O)c2ccc(N3CCC(O)CC3)c([N+](=O)[O-])c2)CC1,-1%,-1%,3%,8%,-0.1%,4%,2%,-3%,-25%,-1%
CCN1C2=NCCCN2c2cc(C)c(C)cc21,1%,0%,-5%,2%,-0.3%,-6%,-3%,1%,-12%,2%
COC(=O)c1sccc1NC(=O)c1c(Cl)cnn1C,-4%,-5%,5%,8%,0.4%,-7%,-1%,-7%,11%,2%
CCc1nnc(NC(=O)C2CCN(C(=O)c3ccccc3C)CC2)s1,0%,-27%,-6%,28%,-0.9%,18%,-1%,-6%,-1%,-7%
Cc1ccn2cc(-c3cccc(NS(C)(=O)=O)c3)nc2c1,-8%,3%,1%,-9%,0.0%,-6%,-7%,-2%,u,-4%
O=C(CN1C2=NCCN2c2ccccc21)C12CC3CC(CC(C3)C1)C2,0%,u,-4%,-3%,-0.8%,-10%,-1%,3%,-1%,-15%
CC(C)[C@H](NC(=O)c1ccccc1)C(=O)OCC(=O)c1ccc2c(c1)NC(=O)CO2,0%,u,2%,-1%,-0.1%,-11%,1%,-6%,15%,0%
Cc1ccc(NC(=O)Nc2ccc([N+](=O)[O-])cc2)nc1,-4%,u,3%,18%,-0.5%,4%,0%,-4%,u,-3%
Cc1ccc(NC(=O)Cn2nc(-c3ccccc3Cl)ccc2=O)c(Br)c1,1%,-29%,5%,8%,0.2%,-1%,-5%,-8%,7%,-7%
Cc1cc(F)ccc1NC(=O)c1ccc(NS(=O)(=O)c2cc(C(C)(C)C)ccc2C)cc1,0%,-3%,0%[46.1 µM],-9%,0.5%,2%,-1%,-5%,10%,-1%
O=C(NC1CCCC1)C(=O)N(Cc1cccnc1)C(C(=O)NCc1ccco1)c1ccccc1F (stereo not given),0%,-2%,x,3%,0.1%,-7%,3%,-2%,-16%,-7%
CC(NC(=O)c1nn(C)c2c1CS(=O)(=O)c1ccccc1-2)c1ccccc1 (stereo not given),0%,u,5%,10%,-0.4%,-2%,-1%,2%,u,23%

# A portion of the library; rates above refer to the full screens.
